# Source: PubChem BioAssay
# Vaccinia inh: Vaccinia orthopox stage-specific inhibition. Vaccinia-infected cells, mCherry/Venus stage reporter fluorescence; stronger effect = lower value; some inactives read as strong as hits. activity change (mCherry), % (no concentration beside the values). hit rate 0.01% among 89,000. AID 1053133;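 active = mCherry past -33% and 40 or more points under the early reporter, replicates agreeing; inconclusive = past -33% without that gap or agreement; tested in A549 cells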;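 also: scaled between vehicle wells and reference inhibitor wells; 23 nL library stock went into each well; one replicate is shown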
# Vaccinia inh Venus: also measured in Vaccinia inh; calls as there; activity change (Venus), %; measured here: Venus reporter, other viral stage;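 negative = less Venus signal; first of two replicates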
# The depositor's hits bear a star; ? = inconclusive; nt = not tested or not shown. A portion of the library; rates above refer to the full screens.
SMILES,Vaccinia inh,Vaccinia inh Venus
COCC(=O)Nc1ccc2c(c1)[C@H]1C[C@@H](CC(=O)NCc3cccc(F)c3)O[C@H](CO)[C@H]1O2,3,0
C[C@@H]1CN([C@H](C)CO)C(=O)c2cc(NC(=O)CCCCCC(=O)Nc3ccccc3N)ccc2O[C@H]1CN(C)S(=O)(=O)c1cn(C)cn1,20,10
CO[C@@H]1CN(C)C(=O)c2ccc(NC(=O)c3nc4ccccc4s3)cc2OC[C@H](C)NC[C@@H]1C,-21,-16
Cc1ccc(S(=O)(=O)Nc2ccc3c(c2)C(=O)N([C@H](C)CO)C[C@H](C)[C@H](CN(C)C(=O)Cc2ccccc2)OCCCC[C@H](C)O3)cc1,-9,-5
O=C(C[C@H]1CC[C@@H](NC(=O)Nc2ccccc2F)[C@@H](CO)O1)NCc1ccc(Cl)cc1,-2,-5
O=C(NC[C@H]1CC[C@@H]2[C@@H](CN2Cc2ccccc2F)O1)C1CC1,4,9
COCC(=O)N1C[C@@H](C)[C@H](OC)CN(C)C(=O)c2cc(NC(=O)c3ccc(F)cc3)ccc2OC[C@@H]1C,1,8
COC(=O)C[C@@H]1CC[C@H]2[C@@H](COc3ccc(NC(=O)c4cnccn4)cc3C(=O)N2C)O1,12,15
C[C@@H]1CN([C@@H](C)CO)C(=O)c2cc(NC(=O)Nc3ccccc3)ccc2O[C@@H]1CN(C)Cc1ccc(C(F)(F)F)cc1,?,nt
O=C(C[C@H]1C[C@H]2c3cc(NC(=O)C4CCOCC4)ccc3O[C@H]2[C@@H](CO)O1)NCc1ccc(Oc2ccccc2)cc1,-3,6
Cc1noc(C)c1NC(=O)Nc1ccc2c(c1)C(=O)N([C@@H](C)CO)C[C@@H](C)[C@H](CN(C)Cc1ccc(Oc3ccccc3)cc1)O2,-7,-6
C[C@@H]1CN([C@@H](C)CO)C(=O)c2cc(NS(=O)(=O)c3ccc(Cl)cc3)ccc2O[C@@H](C)CCCCO[C@@H]1CN(C)Cc1ccccc1,?,nt
COc1ccc(CN(C)C[C@H]2Oc3c(NC(=O)NC(C)C)cccc3C(=O)N([C@@H](C)CO)C[C@@H]2C)cc1,14,10
C[C@@H]1CCCCO[C@@H](CN(C)C)[C@@H](C)CN([C@@H](C)CO)C(=O)c2cc(NS(=O)(=O)c3cn(C)cn3)ccc2O1,22,11
Cc1ccccc1CN(C)C[C@H]1OCc2cnnn2CCCC(=O)N([C@H](C)CO)C[C@H]1C,7,8
Cc1ccc(S(=O)(=O)N(C)C[C@@H]2Oc3ccc(NC(=O)Cc4cn(C)c5ccccc45)cc3CC(=O)N([C@@H](C)CO)C[C@H]2C)cc1,2,6
COc1cccc(C(=O)Nc2ccc3c(c2)C(=O)N(C)C[C@@H](OC)[C@@H](C)CN(C)[C@@H](C)CO3)c1,3,2
CO[C@H]1CN(C)C(=O)c2ccc(NC(=O)C3CC3)cc2OC[C@H](C)N(C(=O)Cc2ccccn2)C[C@@H]1C,8,8
O=C(C[C@@H]1CC[C@@H]2[C@H](COC[C@H](O)CN2Cc2ccccc2F)O1)N[C@@H]1CCN(Cc2ccccc2)C1,-28,-18
C[C@H](CO)N1C[C@H](C)[C@H](CN(C)C(=O)Nc2ccc3c(c2)OCO3)Oc2ccc(NC(=O)Nc3ccc(F)cc3)cc2CC1=O,18,31
CO[C@@H]1CN(C)C(=O)c2ccc(NC(=O)Nc3cccc(Cl)c3)cc2OC[C@H](C)NC[C@H]1C,-30,-10
C/C=C/c1cccc(-c2nc(C(=O)NCc3ccc(OC)cc3)cc3c2[C@H](CCO)N([S@@](=O)C(C)(C)C)C3)c1,1,7
COc1ccc(-c2ccc3c(c2)O[C@@H](CN(C)C)[C@@H](C)CN([C@@H](C)CO)S3(=O)=O)cc1,-10,-9
O=C(NC1CCCC1)N1CC(=O)N2[C@@H](CO)[C@H](c3ccc(/C=C/c4ccccc4)cc3)[C@@H]2C1,6,-8
C[C@H]1CN([C@@H](C)CO)C(=O)Cc2cc(NC(=O)Nc3ccc4c(c3)OCO4)ccc2O[C@H]1CN(C)S(=O)(=O)c1ccc(Cl)cc1,?,nt
COc1ccccc1S(=O)(=O)N(C)C[C@@H]1Oc2cc(/C=C/c3ccccc3)ccc2S(=O)(=O)N([C@H](C)CO)C[C@H]1C,-11,-19
C[C@@H]1CN([C@@H](C)CO)C(=O)Cc2cc(NC(=O)Cc3ccccc3)ccc2O[C@H]1CN(C)S(=O)(=O)c1ccc(Cl)cc1,-33,-31
C[C@@H]1CN([C@H](C)CO)C(=O)c2cccc(NC(=O)Nc3ccc(F)cc3)c2O[C@@H]1CN(C)C,-23,-32
COc1cccc(NC(=O)N2C[C@H](O)COC[C@H]3O[C@@H](CC(=O)NC4Cc5ccccc5C4)CC[C@@H]32)c1,6,2
C[C@H](O)C#Cc1ccc([C@H]2[C@@H](CO)N3CCCCN(C(=O)c4ccc5c(c4)OCO5)C[C@@H]23)cc1,4,-1
CC(C)C[C@@H]1NC(=O)[C@@H]2C[C@H](C(=O)NCc3ccc(F)cc3)[C@H](c3ccc(O)cc3)N2C1=O,13,7
O=C(C[C@H]1CC[C@@H]2[C@H](COC[C@H](O)CN2Cc2cccc(F)c2)O1)NCC1CCCCC1,-23,-13
COc1ccc(NC(=O)N(C)C[C@H]2OCCCC[C@H](C)Oc3ccc(NS(C)(=O)=O)cc3C(=O)N([C@H](C)CO)C[C@@H]2C)cc1,20,6
COCC(=O)N1[C@H](CO)[C@H](c2ccc(-c3cccnc3)cc2)[C@@H]1C#N,12,2
O=S(=O)(c1ccccc1)N1CC2(C1)[C@H](c1ccccc1)[C@H](CO)N2CC1CCCC1,?,nt
C[C@@H]1CN([C@@H](C)CO)C(=O)c2cc(NC(=O)CCC(F)(F)F)ccc2O[C@H]1CN(C)S(=O)(=O)c1cccs1,14,16
CN(C)C(=O)[C@H]1[C@H](CO)[C@H]2Cn3c(ccc(C4=CCCC4)c3=O)[C@@H]1N2CC1CCCCC1,-1,-2
CO[C@@H]1CN(C)C(=O)c2ccc(NS(C)(=O)=O)cc2OC[C@@H](C)N(C(=O)C2CCCC2)C[C@H]1C,0,-3
C[C@@H]1CCCCO[C@@H](CN(C)C(=O)Nc2ccccc2)[C@H](C)CN([C@@H](C)CO)C(=O)c2cc(NS(=O)(=O)c3cn(C)cn3)ccc2O1,22,15
C/C=C/c1ccc([C@@H]2[C@@H](CN(C)C(=O)C3CC3)N(C(=O)C3CC3)[C@H]2CO)cc1,-3,2
CCCC(=O)Nc1ccc2c(c1)C(=O)N(C)[C@H]1CC[C@@H](CC(=O)NCCc3ccccc3)O[C@H]1CO2,13,-1
C[C@H](CO)N1C[C@H](C)[C@H](CN(C)C(=O)Nc2ccccc2)OCCCC[C@H](C)Oc2ccc(NC(=O)c3ccccc3)cc2C1=O,-18,-8
C[C@@H]1CN([C@@H](C)CO)C(=O)c2cccc(NC(=O)C3CC3)c2O[C@H]1CN(C)S(C)(=O)=O,14,10
C[C@@H]1CN([C@@H](C)CO)S(=O)(=O)c2ccc(C#Cc3ccccc3)cc2O[C@@H]1CN(C)C(=O)CN(C)C,?,nt
O=C(Nc1ccc2c(c1)[C@@H]1C[C@H](CC(=O)N3CCCCC3)O[C@@H](CO)[C@@H]1O2)Nc1ccccc1F,23,10

# Some of the entries so far, with values under each structure.
# The line under a structure holds: Vaccinia inh	Vaccinia inh Venus
- O=C(C[C@H]1CC[C@@H]2[C@H](COC[C@H](O)CN2Cc2cccc(F)c2)O1)NCC1CCCCC1
→ -23	-13
- COc1ccc(NC(=O)N(C)C[C@H]2OCCCC[C@H](C)Oc3ccc(NS(C)(=O)=O)cc3C(=O)N([C@H](C)CO)C[C@@H]2C)cc1
→ 20	6
- COCC(=O)N1[C@H](CO)[C@H](c2ccc(-c3cccnc3)cc2)[C@@H]1C#N
→ 12	2
- O=S(=O)(c1ccccc1)N1CC2(C1)[C@H](c1ccccc1)[C@H](CO)N2CC1CCCC1
→ ?	nt
- C[C@@H]1CN([C@@H](C)CO)C(=O)c2cc(NC(=O)CCC(F)(F)F)ccc2O[C@H]1CN(C)S(=O)(=O)c1cccs1
→ 14	16
- CN(C)C(=O)[C@H]1[C@H](CO)[C@H]2Cn3c(ccc(C4=CCCC4)c3=O)[C@@H]1N2CC1CCCCC1
→ -1	-2
- CO[C@@H]1CN(C)C(=O)c2ccc(NS(C)(=O)=O)cc2OC[C@@H](C)N(C(=O)C2CCCC2)C[C@H]1C
→ 0	-3
- C[C@@H]1CCCCO[C@@H](CN(C)C(=O)Nc2ccccc2)[C@H](C)CN([C@@H](C)CO)C(=O)c2cc(NS(=O)(=O)c3cn(C)cn3)ccc2O1
→ 22	15
- C/C=C/c1ccc([C@@H]2[C@@H](CN(C)C(=O)C3CC3)N(C(=O)C3CC3)[C@H]2CO)cc1
→ -3	2

# (more compounds)
SMILES,Vaccinia inh,Vaccinia inh Venus
C[C@@H]1CCCCO[C@H](CN(C)S(=O)(=O)c2ccc(Cl)cc2)[C@H](C)CN([C@H](C)CO)C(=O)c2cc(NC(=O)c3ccncc3)ccc2O1,?,nt
CC(C)NC(=O)N(C)C[C@@H]1Oc2c(NC(=O)Nc3ccc(C(F)(F)F)cc3)cccc2C(=O)N([C@@H](C)CO)C[C@@H]1C,?,nt
CCCN1[C@H](C(=O)OC)[C@@H](CO)[C@@H]2Cn3c(ccc(-c4ccc(F)cc4)c3=O)[C@@H]21,4,6
C[C@@H]1CCCCO[C@@H](CN(C)C(=O)Nc2ccc(F)cc2)[C@H](C)CN([C@H](C)CO)C(=O)c2cc(NS(=O)(=O)c3cn(C)cn3)ccc2O1,17,9
C[C@@H]1CN([C@@H](C)CO)C(=O)c2cc(NS(C)(=O)=O)ccc2O[C@@H](C)CCCCO[C@H]1CN(C)C,2,10
CN(C)C(=O)C[C@@H]1CC[C@H]2[C@@H](COc3ccc(NC(=O)c4ccc(F)c(F)c4)cc3C(=O)N2C)O1,16,14
O=S(=O)(N[C@H]1CC[C@H](CCn2cc(Cc3ccccc3)nn2)O[C@@H]1CO)c1ccccc1F,8,6
C[C@@H]1CN([C@H](C)CO)S(=O)(=O)c2ccc(C#Cc3ccccc3)cc2O[C@H]1CN(C)S(=O)(=O)c1ccccc1F,-6,-7
C[C@H]1CN([C@@H](C)CO)C(=O)Cc2cc(NC(=O)Cn3cnnn3)ccc2O[C@H]1CN(C)CC1CC1,9,16
COC(=O)C[C@H]1CC[C@H]2[C@@H](COc3ccc(NC(=O)Nc4cc(C)cc(C)c4)cc3C(=O)N2C)O1,-13,-4
COCC(=O)NC[C@H]1N[C@H](CO)[C@@H]1c1ccc(-c2ccccc2)cc1,-1,2
Cc1noc(C)c1NC(=O)Nc1ccc2c(c1)C(=O)N([C@@H](C)CO)C[C@H](C)[C@@H](CN(C)Cc1ccncc1)OCCCC[C@H](C)O2,29,15
CC(=O)N(C)C[C@H]1Oc2ncc(C#Cc3cccnc3)cc2C(=O)N([C@@H](C)CO)C[C@H]1C,12,9
CCC(=O)N1CC[C@@H]2[C@H]1c1cc(-c3ccc(F)cc3)ccc1N(C)[C@@H]2CO,7,5
COc1ccc(S(=O)(=O)Nc2ccc3c(c2)C(=O)N([C@@H](C)CO)C[C@H](C)[C@@H](CN(C)C(=O)Nc2ccc(F)cc2)OCCCC[C@H](C)O3)cc1,-34,-29
C[C@H](CO)N1C[C@H](C)[C@H](CN(C)Cc2ccc(C(F)(F)F)cc2)Oc2ccc(NC(=O)NC3CCCCC3)cc2CC1=O,-17,-23
C[C@@H]1CN([C@@H](C)CO)C(=O)c2cccc(NS(=O)(=O)c3ccc(F)cc3)c2O[C@H]1CN(C)S(=O)(=O)c1cn(C)cn1,16,12
C[C@@H]1CCCCO[C@@H](CN(C)C(=O)NC2CCCCC2)[C@@H](C)CN([C@@H](C)CO)C(=O)c2cc(NS(=O)(=O)c3cccs3)ccc2O1,15,5
CO[C@@H]1CN(C)C(=O)c2cc(NS(C)(=O)=O)ccc2OC[C@@H](C)N(C(=O)C2CCC2)C[C@@H]1C,15,8
C[C@@H]1CN([C@H](C)CO)C(=O)c2cc(-c3ccncc3)cnc2O[C@@H]1CN(C)C(=O)Cc1cccnc1,4,2
COC(=O)C[C@H]1C[C@H]2c3cc(NC(=O)Nc4ccc(F)cc4)ccc3O[C@H]2[C@@H](CO)O1,-6,-12
COc1ccc(NC(=O)N(C)C[C@@H]2OCCCC[C@H](C)Oc3ccc(NC(=O)CCC(F)(F)F)cc3C(=O)N([C@@H](C)CO)C[C@@H]2C)cc1,-5,-1
C[C@H](CO)N1C[C@H](C)[C@H](CN(C)Cc2cccc(C(F)(F)F)c2)Oc2ncc(-c3ccccc3)cc2C1=O,-25,-22
O=C(c1cccc(F)c1)N1CCCCN2[C@H](CO)[C@@H](c3ccc(/C=C/c4ccccc4)cc3)[C@H]2C1,?,nt
C[C@@H]1CN([C@H](C)CO)C(=O)c2cccc(NC(=O)c3ccc(-c4nccs4)cc3)c2O[C@H]1CN(C)Cc1ccc(-c2ccccc2)cc1,-20,-15
C[C@H](CO)N1C[C@H](C)[C@H](CN(C)S(=O)(=O)c2cccs2)Oc2ncc(C#CC(C)(C)O)cc2C1=O,-5,-5
COc1ccc(CN(C)C[C@@H]2Oc3ccc(NC(=O)Nc4ccccc4)cc3CC(=O)N([C@H](C)CO)C[C@H]2C)cc1,-2,2
Cc1noc(C)c1NC(=O)Nc1ccc2c(c1)C(=O)N([C@H](C)CO)C[C@H](C)[C@H](CN(C)S(=O)(=O)c1ccc(Cl)cc1)O2,20,18
COc1ccc([Si](C)(C)[C@@H]2[C@@H](CCO)O[C@]3(C(=O)N(Cc4cccc(NC(C)=O)c4)c4ccccc43)[C@H]2C)cc1,?,nt
CCC(=O)N(C)C[C@H]1Oc2ncc(C#C[C@H](C)O)cc2C(=O)N([C@H](C)CO)C[C@H]1C,5,12
C[C@H](CO)N1C[C@H](C)[C@H](CN(C)S(=O)(=O)c2ccccc2)Oc2ccc(NS(=O)(=O)c3ccc(Cl)cc3)cc2CC1=O,7,-1
Cc1ccccc1S(=O)(=O)N1[C@H](CO)[C@H](c2ccccc2)[C@@H]1C#N,-6,5
